Screens from PubChem BioAssay.
NPYLR7 agonist: activates Aedes aegypti NPYLR7 receptor; HEK293T NPYLR7/Galpha15, GCaMP6s calcium fluorescence; activation, % at 10 µM; 270,000 tested, 0.15% active; AID 1259423; in the data active = activation above about 40%;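 note: 0% = vehicle and 100% = reference agonist at the receptor; some compounds past the cut are filed as inactive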
NPYLR7 agonist max-min: also measured in NPYLR7 agonist; calls as there; activation, %; measured here: Max-Min RFU normalised activation; some inactives read as strong as hits;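 span of the calcium signal over five minutes; 0% = vehicle and 100% = native peptide agonist; compound fluorescence can raise it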
An asterisk follows results filed as active.

A first look:
| smiles | NPYLR7 agonist | NPYLR7 agonist max-min |
| --- | --- | --- |
| CN(C)c1ccc(N)cc1CN(Cc1cccc(F)c1)C(=O)C1CC1 | -5 | -2 |
| Cc1ccc(C(O)(CC(=O)OC(C)C(=O)N(C)C)C(F)(F)F)o1 (stereo not drawn) | 14 | 11 |

The whole of this part, repeating the preview:
| smiles | NPYLR7 agonist | NPYLR7 agonist max-min |
| --- | --- | --- |
| CN(C)c1ccc(N)cc1CN(Cc1cccc(F)c1)C(=O)C1CC1 | -5 | -2 |
| Cc1ccc(C(O)(CC(=O)OC(C)C(=O)N(C)C)C(F)(F)F)o1 (stereo not drawn) | 14 | 11 |
| COc1cccc(N2C=Nn3c(nnc3SCC(=O)c3ccc(Cl)cc3)C2)c1 | 7 | 5 |
| COc1cccc2c(NC(=O)c3ccncc3)c(C(=O)c3ccc(Cl)cc3)oc12 | -2 | 0 |
| O=C(Nc1ccccc1)c1cccn(OCc2ccccc2F)c1=O | 2 | -1 |
| NC(=O)C1CCN(C(=O)c2cccs2)CC1 | -11 | -21 |
| COc1ccc(N2C(=O)CC(N3CCN(Cc4ccc(Cl)s4)CC3)C2=O)cc1Cl (stereo not drawn) | -1 | 7 |
| Clc1ccc(CN2CCN(c3ccc(Br)cn3)CC2)s1 | 2 | 2 |
| COc1ccccc1-n1c(CNC(=O)c2cccc([N+](=O)[O-])c2C)nnc1SCC(=O)N1CCc2ccccc21 | -6 | 1 |
| COCCn1c(=O)c2c(nc3n2CC(C)CN3Cc2ccccc2)n(C)c1=O (stereo not drawn) | 15 | 8 |
| COc1cccc(-c2cc(C(=O)N3CCC(n4c(=O)[nH]c5ccccc54)CC3)n3nc(C(C)(C)C)cc3n2)c1 | 20 | 21 |
| COCc1ccc(C(=O)Nc2ncccc2C)cc1 | 9 | 3 |

Whole records, looked up by structure. Screens in order: NPYLR7 agonist	NPYLR7 agonist max-min
COc1cccc(-c2cc(C(=O)N3CCC(n4c(=O)[nH]c5ccccc54)CC3)n3nc(C(C)(C)C)cc3n2)c1 in the list: 20	21
Cc1ccc(C(O)(CC(=O)OC(C)C(=O)N(C)C)C(F)(F)F)o1 (stereo not drawn) in the list: 14	11
COc1ccc(N2C(=O)CC(N3CCN(Cc4ccc(Cl)s4)CC3)C2=O)cc1Cl (stereo not drawn) in the list: -1	7
COCc1ccc(C(=O)Nc2ncccc2C)cc1 in the list: 9	3
NC(=O)C1CCN(C(=O)c2cccs2)CC1 in the list: -11	-21

Other entries
| smiles | NPYLR7 agonist | NPYLR7 agonist max-min |
| --- | --- | --- |
| C#CCN1C(C)=C(C(=O)OC)C(c2cccc([N+](=O)[O-])c2)C(C(=O)OCC)=C1C (stereo not drawn) | 6 | -38 |
| CC(C)CN(CC(=O)N(Cc1ccccc1)Cc1cccn1Cc1ccc(F)cc1)S(=O)(=O)c1ccc(Cl)cc1 | 2 | 16 |
| COc1ccc(-c2oncc2-c2ccccc2)c(O)c1 | 5 | 2 |
| CNC(=O)COc1ccc(NCc2cc(C)ccc2C)cc1 | 2 | 3 |
| O=C(c1ccccc1F)N(Cc1ccc(F)cc1)CC1CC(c2ccc(F)cc2F)=NO1 (stereo not drawn) | 23 | 35 |
| Cc1cc(C)n(Cc2ccc(F)c(F)c2)c1C(=O)N(C)Cc1ccccc1 | 1 | 14 |
| N#Cc1ccccc1N=Cc1cccc(Cl)c1 | 0 | -4 |
| Cn1cc(CN(C(=O)c2ccc(O)c(Cl)c2)C2CC2)cn1 | 23 | 7 |
| COc1ccc(S(=O)(=O)NCC2CCCO2)cc1N1CCN(S(=O)(=O)c2ccccc2C(F)(F)F)CC1 (stereo not drawn) | 3 | 3 |
| COc1csc(C(=O)N2CC(=O)N(C(C)C)C(C)(C)C2)c1 | -2 | 360 |
| O=C(Cn1cnc([N+](=O)[O-])n1)Nc1cc(Oc2cncc(Cl)c2)cc([N+](=O)[O-])c1 | -5 | -7 |
| Cc1ccc(NC(=O)c2cc(-c3cccn3C)nn2-c2cccc(Cl)c2)cc1 | 35 | 36 |
| S=c1n(CN2CCOCC2)c2ccccc2n1CN1CCOCC1 | 7 | 6 |
| O=C(CSc1nc2ccccc2s1)N/N=C\c1cc(Br)ccc1O | 18 | 19 |
| Cc1cc2nc(-c3cccs3)cc(C(=O)NCCSCc3c(Cl)cccc3Cl)c2cc1C | -4 | -10 |
| Cc1c(F)cccc1N1C(=O)CSC1c1ccc(NC(=O)C(C)(C)CCl)cc1 (stereo not drawn) | 5 | 5 |
| C1=C(C2CCNc3c2ccc2cccnc32)CCCC1 (stereo not drawn) | 1 | 50 |
| CCSCCOC(=O)C1=C(C)NC(=O)NC1c1ccccc1F (stereo not drawn) | -5 | -6 |
| COCCn1c(SCc2cc(F)ccc2Br)nnc1-c1cc(-c2ccccc2)nc2ccccc12 | -7 | -9 |
| CCOC(=O)N1CCC2(CC1)N=C(CCC(C)C)NC2=O | 3 | 0 |
| CCCCN(CC(=O)N(Cc1ccccc1)Cc1ccc(C)s1)S(=O)(=O)c1ccc(Cl)cc1 | -6 | -4 |
| O=C(O)CCCCCn1c(SCc2cc(=O)n3ccccc3n2)nc2ccsc2c1=O | 0 | -1 |
| O=C1CC2(CCN(C(=O)NC3CCC(CC4CCC(NC(=O)N5CCC6(CC5)CC(=O)c5cc(F)ccc5O6)CC4)CC3)CC2)Oc2ccc(F)cc21 (stereo not drawn) | -1 | -5 |
| Cc1ccc(C)c(C2CC(c3ccccc3Cl)=NN2C(=O)CN2CCCCC2C)c1 (stereo not drawn) | 0 | 8 |
| CCOC(=O)c1sc(NC(=O)COc2ccc(C(C)(C)C)cc2)nc1C | -9 | -14 |
| Cc1c(C)n2c3c(=O)n(Cc4ccccc4Cl)c(=O)n(C)c3nc2n1CCCO | 18 | 14 |
| O=C(CNc1cccc(F)c1)Nc1ccc(Br)cc1 | -7 | -11 |
| Cc1ccc2oc(=O)n(C3CCN(C(=O)c4cccnc4Cl)CC3)c2c1 | 5 | 2 |
| CC(C)N(Cc1nccn1Cc1ccc(F)c(F)c1)C(=O)c1ccc(F)cc1 | 10 | 16 |
| OCC(CO)n1ccnc1-c1ccc2nsnc2c1 | 4 | 1 |
| COc1ccc(-n2cnc3c(C)nc(-n4nc(C)cc4C)nc32)cc1 | 4 | 5 |
| CC1CCc2ccccc2N1S(=O)(=O)c1ccc2c(c1)CCC2 (stereo not drawn) | -1 | -1 |
| COc1ccc(CN2CCNC(=O)C2CC(=O)NC(C)(C)CO)c(C)c1C (stereo not drawn) | 7 | 1 |
| CCC(C)N(Cc1ccc(OC)c(OS(=O)(=O)c2ccc(NC(C)=O)cc2)c1)C(=O)NC(C)(C)C (stereo not drawn) | -6 | 3 |
| O=C(CCC1CCCN(Cc2cc3ccccc3s2)C1)Nc1ccccc1F (stereo not drawn) | 12 | 0 |
| COc1cccc(OCc2ccccc2)c1C(=O)NCc1ccco1 | -14 | -23 |
| CCN(CC(=O)NCc1cscn1)Cc1ccc(Cl)cc1 | 11 | 8 |
| Cc1sc(=NC(=O)c2cccc(C(F)(F)F)c2)n(C(C)C(=O)NC2CC2)c1C (stereo not drawn) | 7 | 7 |
| COc1ccc(CCN(C)C(=O)c2cc(-c3ccc(F)cc3)nc3cc(-c4ccccc4)nn23)cc1OC | 14 | 13 |
| NCc1nnc2n1CC(C(F)(F)F)CC2 (stereo not drawn) | -9 | -8 |
| CS(=O)(=O)c1sc2nc3c(cc2c1N)CCCC3 | 8 | 2 |
| Cc1cc(C(=O)N2CCCC3(CCN(C)C3)C2)n[nH]1 (stereo not drawn) | 6 | 4 |
| CCCN(Cc1c(C)nn(-c2ccccc2)c1N1CCN(C)CC1)C(=O)CSc1ccccc1 | -2 | 8 |
| O=C(NCc1nnc(SCc2ccc(F)cc2)n1-c1cc(Cl)ccc1Cl)Nc1cccc(C(F)(F)F)c1 | 15 | 18 |
| CN(Cc1cc(C2CC2)on1)Cc1ncccc1C(=O)O | 0 | -2 |
| CC(C)Cc1noc(CN(C)S(=O)(=O)NCc2ccccc2)n1 | 6 | 2 |
| CN(Cc1cccc(Cl)c1)Cn1nnc(-c2ccc(F)cc2)n1 | 1 | 11 |
| CCCCOc1ccc(-c2nc(C=Nc3ccc(C)cc3C)c(O)o2)cc1 | -3 | -1 |
| COc1ccc(N2CCN(C(=O)C3CCCCC3C(=O)Nc3cccc(C(F)(F)F)c3)CC2)cc1 (stereo not drawn) | -5 | -10 |
| Cn1cc(N2CCC(NC(=O)C3C4CC5CC(C4)CC3C5)C2=O)cn1 (stereo not drawn) | -2 | -3 |
| Cc1ccc2[nH]c(C(=O)O)c(CN3CCN(c4nc(C)cnc4C)CC3)c2c1 | -3 | -4 |
| Cc1ccccc1Nc1nc(CN2CCN(c3ccccn3)CC2)cs1 | -3 | 3 |
| CC1(C)Cc2c(cnn2-c2ccccc2)C(NC(=O)CCc2cccs2)C1 (stereo not drawn) | 3 | 0 |
| CC=CCn1c(=O)c2c(nc3n2CCN3c2cc(C)ccc2C)n(C)c1=O | -2 | -5 |
| Cc1n[nH]c(C)c1CCC(=O)N1CCNCC(CC(=O)O)C1 (stereo not drawn) | 14 | 2 |
| CC(=O)N(N=C1Sc2ccccc2C1=O)c1ccccc1[N+](=O)[O-] | -3 | -8 |
| O=C(O)Cc1ccc(CN2CCCC2c2nc3ccc(F)cc3[nH]2)cc1 (stereo not drawn) | 3 | 1 |
| COC(=O)[C@@H]1NC(c2ccccc2)C(C(=O)c2ccc(C)cc2)[C@H]1c1ccccc1 (stereo partly drawn) | -2 | -5 |
| CN(Cc1n[nH]c2c1CCCCC2)C(=O)c1cc(COc2ccccc2)[nH]n1 | 1 | -4 |
| CCOC(=O)c1ccc(N=Cc2c(C(F)(F)F)[nH]n(-c3nc4ccccc4s3)c2=O)cc1 | -3 | -2 |

Remaining list, next part.
| smiles | NPYLR7 agonist | NPYLR7 agonist max-min |
| --- | --- | --- |
| CN(CC(=O)Nc1cc(Cl)ccc1F)c1nccs1 | 8 | 2 |
| Cc1noc(C)c1CN(Cc1ccccc1Cl)C1CCCC1 | -13 | -13 |
| Brc1ccc(Cc2nnc3n2N=C(c2ccc4c(c2)OCCO4)CS3)cc1 | 17 | 14 |
| Cc1ccc(SCc2ccc(C(=O)N3C4CCC3CC(Oc3cccc(C(F)(F)F)c3)C4)cc2)c(C)c1 (stereo not drawn) | 17 | 5 |
| NC(=O)Nc1ccc2c(c1)OCO2 | 2 | 11 |
| O=C(NCC1CC1)C1Cc2c(-c3ccc(Cl)cc3)ccnc2O1 (stereo not drawn) | 5 | 3 |
| CCN(Cc1nc(C)no1)C(=O)CCc1cc(C)cc(C)c1 | 16 | 8 |
| COc1cccc(-c2cccc(-c3ccc(NC(=O)COc4ccccc4)cc3)n2)c1 | -2 | -1 |
| CCc1nc(SCC(=O)c2cccs2)c2oc3ccccc3c2n1 | -9 | -12 |
| CCc1nc2c(OCc3ccc(OC(F)F)cc3)cccn2c1N(C)C(=O)C(C)C | 5 | 8 |
| COCCNC(=S)NN=C(C)c1ccc(C)o1 | 6 | 2 |
| CN(CC(=O)Nc1cccc(F)c1)C(=O)CCc1ncc(-c2ccc(F)cc2F)o1 | 9 | 7 |
| CC(C(=O)O)n1c(O)c(C2=c3ccccc3=NC2=O)sc1=S (stereo not drawn) | 6 | 3 |
| O=c1ccc2ccc(O)c(O)c2o1 | -11 | -13 |
| Cn1nc(C(=O)NNC(=O)C2c3ccccc3Oc3ccccc32)c2ccccc2c1=O | 2 | 11 |
| CCc1n[nH]c(=O)c(-c2nc(-c3cc(F)ccc3F)cs2)c1CC | -5 | -5 |
| CC(c1ccc(S(N)(=O)=O)cc1)N(C)C(=O)COc1ccc(F)cc1Br (stereo not drawn) | -2 | -4 |
| COc1ccc(NC(=O)c2cc3c(cc2[N+](=O)[O-])OCCO3)c(OC)c1 | 2 | -2 |
| Cc1cc(Oc2cnn(-c3cccc(F)c3)c(=O)c2Nc2cccc(C(=O)NCCc3ccccn3)c2)ccc1Cl | 7 | 5 |
| CCOC(=O)c1c(NC(=O)c2cc3nc(-c4ccco4)cc(C(F)(F)F)n3n2)sc2c1CCC2 | -15 | -22 |
| CC(Cn1cncn1)C(=O)NCc1cccnc1N(C)C1CCCCC1 (stereo not drawn) | 0 | -5 |
| Cc1cnn(CCC(=O)NC2(c3ccc(Cl)cc3)CC2)c1 | 7 | 4 |
| CCOC(=O)N1CCN(C(=O)CSc2ccc(-c3cccs3)nn2)CC1 | 2 | -11 |
| O=C(c1cc(-c2ccccc2)nc2cc(-c3ccccc3)nn12)N1CCN(c2cccc(Cl)c2)CC1 | 9 | 14 |

In another format: results already given.
Sequence of screens – NPYLR7 agonist, NPYLR7 agonist max-min
- CCc1n[nH]c(=O)c(-c2nc(-c3cc(F)ccc3F)cs2)c1CC
  -5, -5
- CC(c1ccc(S(N)(=O)=O)cc1)N(C)C(=O)COc1ccc(F)cc1Br (stereo not drawn)
  -2, -4

(next part)
| smiles | NPYLR7 agonist | NPYLR7 agonist max-min |
| --- | --- | --- |
| CCC(Cn1ccnc1)NC1CCN(c2ccccc2F)CC1 (stereo not drawn) | 16 | 13 |
| Cc1cc2nc(N(Cc3cccnc3)C(=O)c3ccccc3[N+](=O)[O-])sc2cc1C | -3 | -5 |
| CC(=O)Nc1ccc(SCc2csc(Cc3ccc(Cl)c(Cl)c3)n2)cc1 | 3 | 12 |
| Cc1ccc(N2CCC(C(=O)NCc3cc4ccccc4o3)C2=O)cc1C (stereo not drawn) | -1 | -2 |
| O=C(NCc1ccon1)C1CCCN(C2CCN(Cc3cccnc3)CC2)C1 (stereo not drawn) | 2 | 2 |
| CCOC(=O)C1CCN(c2c(C(=O)c3ccc(C)c(C)c3)cnc3cc4c(cc23)OCO4)CC1 | -10 | -11 |
| Cc1ccc(C2CC(c3ccccc3Cl)=NN2C(=O)CN2CCCCC2C)cc1 (stereo not drawn) | 9 | 12 |
| O=C(c1cccc(Cl)c1)N(Cc1ccc(OS(=O)(=O)c2ccc(F)cc2)cc1)Cc1ccco1 | 2 | -4 |
| C=CCOn1c(=O)c(-c2ccc(OCCC)cc2)[n+]([O-])c2ccccc21 | 11 | 11 |
| Cc1cc(C)n(CC(C)NC(=O)c2oc3c(F)cccc3c2C)n1 (stereo not drawn) | 13 | 4 |

This is a subset, so the mix of outcomes need not match the whole.
